Screening results: PubChem, Johns Hopkins Ion Channel Center
KCNQ2 block = KCNQ2 channel blockers in CHO-K1 cells – cell-based, FluxOR thallium flux, B-score, primary screen (AID 2156); O88943; 20 min; stronger effect = lower value; only compounds with negative scores are shown here; some inactives read as strong as hits; B-score at 10 µM; 310,000 tested, 1.1% active;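 active = fluorescence ratio B-score at most minus 3 library SDs, with starting brightness B-score within 2 library SDs, cut at about -5.5 in these data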
Target sequence (O88943 whole entry, looked up): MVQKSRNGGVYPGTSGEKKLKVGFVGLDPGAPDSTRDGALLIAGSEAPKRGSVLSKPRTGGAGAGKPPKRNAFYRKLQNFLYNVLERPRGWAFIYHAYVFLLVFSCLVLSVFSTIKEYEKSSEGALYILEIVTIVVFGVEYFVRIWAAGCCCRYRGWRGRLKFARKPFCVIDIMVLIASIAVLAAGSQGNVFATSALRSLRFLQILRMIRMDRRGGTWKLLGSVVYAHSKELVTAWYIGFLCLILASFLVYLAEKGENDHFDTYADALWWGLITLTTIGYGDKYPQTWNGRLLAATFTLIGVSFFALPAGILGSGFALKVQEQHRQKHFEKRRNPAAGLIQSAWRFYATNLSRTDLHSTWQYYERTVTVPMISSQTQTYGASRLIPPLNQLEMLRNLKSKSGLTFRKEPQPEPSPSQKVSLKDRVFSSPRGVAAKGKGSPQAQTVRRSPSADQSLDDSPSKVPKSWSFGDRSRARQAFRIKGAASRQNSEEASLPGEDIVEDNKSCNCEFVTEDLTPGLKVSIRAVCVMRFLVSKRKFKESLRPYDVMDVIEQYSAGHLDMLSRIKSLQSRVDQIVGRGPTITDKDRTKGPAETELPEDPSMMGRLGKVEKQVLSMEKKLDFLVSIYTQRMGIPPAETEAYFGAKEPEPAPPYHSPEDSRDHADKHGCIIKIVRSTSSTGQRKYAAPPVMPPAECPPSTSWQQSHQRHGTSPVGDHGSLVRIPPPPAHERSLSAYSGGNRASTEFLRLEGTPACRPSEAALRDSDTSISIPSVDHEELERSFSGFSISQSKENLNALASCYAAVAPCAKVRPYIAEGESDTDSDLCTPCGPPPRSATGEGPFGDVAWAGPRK
KCNQ2 block baseline = recorded beside KCNQ2 block, whose call it bears; B-score; measured here: initial fluorescence intensity artifact check;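 brightness before thallium and not channel activity; 0 = typical well and far values either way flag optical interference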
The depositor's hits bear a star; i = inactive. Some of the compounds tested; count on the stated rates, not on these rows.

| smiles | KCNQ2 block baseline | KCNQ2 block |
| --- | --- | --- |
| CS(=O)(=O)N1CCN(c2ccc(Cl)cc2[N+](=O)[O-])CC1 | -1.89 | i |
| Cc1[nH]c2ccccc2c1SCC(=O)N1CCCCCC1 | -0.42 | i |
| C=C(C)CSc1nc2c(c(=O)[nH]c(=O)n2C)n1Cc1ccccc1 | -2.34 | i |
| Cc1[nH]n(-c2ccccc2)c(=O)c1N=Nc1ccccc1C(=O)N1CCCCC1 | 1.11 | i |
| Cc1ccc(/C=c2\sc3n(c2=O)CN(c2ccc(Br)cc2)CN=3)o1 | -0.66 | i |
| C[C@]12CCC(=O)C=C1CC[C@@H]1[C@@H]2[C@@H](O)C[C@@]2(C)[C@H]1CC[C@]2(O)C(=O)COC(=O)CCC(=O)O | 0.42 | i |
| O=C(CNS(=O)(=O)c1cccc2nonc12)NCc1ccc(F)cc1 | -2.91 | i |
| COc1ccc(C(=O)C2CCCN(C(=O)c3ccc(OC)o3)C2)c(C)c1 (stereo not given) | -1.23 | i |
| O=C(Nc1nnc(SCc2cccnc2)s1)C1CC(=O)N(c2ccc(F)cc2)C1 (stereo not given) | 0.75 | i |
| O=c1[nH]c2c(=O)[nH]cnc2nc1-c1ccccc1 | 0.26 | i |
| CCn1c(COc2ccc(OC)cc2)nc2ccccc21 | 0.52 | i |
| Cc1ccc(N2CCN(/N=C/c3cccnc3)CC2)cc1 | 0.24 | i |
| COc1cccc(CC(NC(C)=O)C(=O)NC2CCN(C(=O)c3ccncc3)CC2)c1OC (stereo not given) | 0.13 | i |
| CC(C)c1cc(=O)[nH]c(SCC(=O)NC2CCCC2)n1 | 1.89 | i |
| Cc1ccc(C)c(OCC(=O)NC(Cc2c[nH]c3ccccc23)C(=O)O)c1 (stereo not given) | -0.22 | i |
| CN1CCC(Oc2ccc(Sc3ccccc3)cc2)CC1 | -1.64 | i |
| COC(=O)C1CCN(C(=O)c2sc3nc(-c4ccc(F)cc4)cn3c2C)CC1 | -0.05 | i |
| CCCNc1ncnc2onc(C)c12 | -2.84 | i |
| CC1CC/C(=C\c2ccc3c(c2)OCO3)C(=O)/C1=C/c1ccc2c(c1)OCO2 (stereo not given) | 0.45 | i |
| O=C(Nc1ccc([N+](=O)[O-])cn1)c1cc(-c2cccc(Br)c2)nc2ccccc12 | 0.13 | i |
| Cc1ccccc1C(=O)NCCCNC(=O)c1cnccn1 | 1.03 | i |
| CC(C)Oc1ccc(CCc2n[nH]c(=S)n2-c2ccccc2)cc1 | -1.43 | i |
| N=C1S/C(=C\c2ccc(-c3ccccc3C(=O)O)o2)C(=O)N1c1ccc2c(c1)OCO2 | -0.66 | i |
| O=C(NC1CCCCC1)C(c1ccc(F)cc1)N(Cc1ccco1)C(=O)c1ccccn1 (stereo not given) | 0.82 | i |
| Nc1nc(SCC(=O)NCCC(c2ccccc2)c2ccccc2)n[nH]1 | -0.01 | i |
| COc1ccccc1CNC(=O)COc1ccc(Br)c(C)c1 | 0.34 | i |
| COc1cccc(NC(=O)COC(=O)CC(NC(N)=O)c2ccc(Cl)cc2)c1 (stereo not given) | 1.52 | i |
| CN=C1S/C(=C\c2ccc(N3CCOCC3)c(F)c2)C(=O)N1C | 1.25 | i |
| C#CCOCCOCCOCCNc1nc(N2CCN(C(=O)[C@H](Cc3ccc(O)cc3)n3cc(C(N)CC(C)C)nn3)CC2)nc(N2CCN(C(=O)[C@H](CCC(=O)O)n3cc(C(N)[C@H](C)CC)nn3)CC2)n1 (stereo not given in full) | 1.82 | i |
| S=c1[nH]nc(CNc2ccc(Cl)cc2)n1Cc1ccccc1 | 0.69 | i |
| O=C(Cc1ccc(-n2cccc2)cc1)NCc1ccccc1Cl | 0.9 | i |
| CCOC(=O)c1c(NC(=O)CSc2nnc(Cc3ccccc3)o2)sc(C)c1C | 0.01 | i |
| CC(C)(C)Nc1nc(OCC(F)(F)F)nc(OCC(F)(F)F)n1 | 0.22 | i |
| Cc1nc(SCC2(C)CC2(Cl)Cl)n[nH]1 (stereo not given) | -0.04 | i |
| Cc1cccc(C(=O)NNC(=O)c2ccccc2O)c1 | -0.18 | i |
| Cc1ccc(-n2c(SCC(=O)NCc3ccc4c(c3)OCO4)nnc2-c2cccnc2)c(C)c1 | 0.51 | i |
| CCn1c(=O)c([N+](=O)[O-])c(NCC2CCCO2)c2ccccc21 (stereo not given) | 0.37 | i |
| Cc1cccc(Cn2nc(C(C)(C)C)cc2C(=O)Nc2ccc(F)cc2)c1 | -0.26 | i |
| Cc1cc(C)nc(SCc2cn3c(C)cccc3n2)n1 | -1.95 | i |
| C=CCNC(=S)/C(=C(/[O-])c1ccccc1Br)[n+]1ccccc1 | 0.18 | i |
| Cc1cc(C)nc(SCc2ccc([N+](=O)[O-])cc2)n1 | -0.35 | i |
| O=C(NCc1ccco1)c1cccc(Nc2nc3ccc(Br)cc3[nH]2)c1 | 0.5 | i |
| CNC(=O)COC(=O)c1cc(SC)ccc1Cl | 1.81 | i |
| O=C1C2C3C=CC(C3)C2C(=O)N1c1cccc(N2C(=O)C3C4C=CC(C4)C3C2=O)n1 (stereo not given) | 0.96 | i |
| Cc1ccc(N2CN(S(=O)(=O)c3cccc([N+](=O)[O-])c3)c3nc4ccccc4nc32)cc1 | -0.04 | i |
| O=C(Nc1ccc(Cl)c(Cl)c1)OCc1cnc(Cl)s1 | 0.02 | i |
| COC(=O)C1=NNC2(c3ccc(Cl)cc3)C(=O)N(c3ccccc3)C(=O)C12 (stereo not given) | -1.04 | i |
| CCOC(=O)/C=c1\s/c(=C\c2ccc(-c3ccccc3)cc2)c(=O)n1CC(=O)NCc1ccc2c(c1)OCO2 | 2.2 | i |
| CCCCCN(C(=O)CCC(=O)OCc1cc(C)ccc1C)c1c(N)n(CCCC)c(=O)[nH]c1=O | -0.21 | i |
| Cc1noc(C)c1CSc1nc2sc(C)c(C)c2c(=O)n1-c1ccccc1 | -0.13 | i |
| COc1ccc(C(C(=O)NC(C)(C)C)N(C(=O)CNC(=O)c2cccs2)c2ccc(NC(C)=O)cc2)cc1OC (stereo not given) | 0.91 | i |
| COc1cc(/C=N/N=C(\N)c2nonc2N)cc(OC)c1OC | -0.23 | i |
| O=C(CP(=O)(c1ccccc1)c1ccccc1)N1CCCCC1 | 0.87 | i |
| CN1CCN(CCCNC(=O)c2ccc(/C=C3\Oc4ccccc4N(Cc4ccc(Cl)cc4)C3=O)cc2)CC1 | 2.03 | i |
| COc1ccc(C2Nc3ccccc3C(=O)N2c2ccc(F)cc2)cc1CSc1ccccn1 (stereo not given) | 1.88 | i |
| Cc1cc(C)c(NC(=O)C2CCCN2CCOC(=O)c2ccccc2)c(C)c1 (stereo not given) | -0.75 | i |
| Cc1ccc(CN2C(=O)C(C)Nc3ncnc(N4CCN(c5ccccn5)CC4)c32)cc1 (stereo not given) | 0.18 | i |
| O=C(Oc1cccc(Oc2ccccc2)c1)N1CCOCC1 | 0.6 | i |
| O=C(/C=C/c1ccccc1)N/C(=C/c1ccccc1)C(=O)NCCO | 1.79 | i |
| Cc1cc(N2CCOCC2)nc2ccc(NC(=S)NCc3ccc4c(c3)OCO4)cc12 | -0.8 | i |

(next part)
| smiles | KCNQ2 block baseline | KCNQ2 block |
| --- | --- | --- |
| Clc1ccc(-c2nc3ccccc3nc2-c2ccccc2)cc1 | 0.29 | i |
| COc1ccccc1OC1=NS(=O)(=O)c2ccccc21 | 0.15 | i |
| CCOc1ccccc1C(=O)NC(C(=O)NCc1ccccc1OC)C(C)C (stereo not given) | -0.03* | -6.23* |
| Cc1ccc(OCCC(=O)OCC(=O)Nc2ccc(N3CCOCC3)cc2)cc1 | 0.03 | i |
| O=C(NCc1ccccc1Cl)C1CCN(S(=O)(=O)N2CCCCC2)CC1 | -2.1 | i |
| COc1ccc(CCN2C(=O)CC(Cc3ccc(Br)cc3)C2=O)cc1OC (stereo not given) | 0.24 | i |
| O=C(CN1CCOC1=O)N1CCCC(Nc2ccc(F)c(F)c2)C1 (stereo not given) | -0.15 | i |
| CC(C)(O)CC[C@@H](O)[C@](C)(O)[C@H]1CC[C@@]2(O)C3=CC(=O)[C@@H]4C[C@@H](O)[C@@H](O)C[C@]4(C)C3CC[C@]12C (stereo not given in full) | -0.06 | i |
| O=C1C(Cl)=C(N2CCC(C(=O)O)CC2)C(=O)c2ccccc21 | -1.66 | i |
| COc1ccccc1N(CC(=O)N(CC(C)C)CC(C)C)S(=O)(=O)c1cccs1 | 0.15 | i |
| CC1Sc2n(c3ccccc3[n+]2C)N=C1c1ccccc1 (stereo not given) | -0.03 | i |
| Cc1c(C(=O)N2CCCC2)c(S(=O)(=O)N2CCN(c3ccccc3F)CC2)c(C)n1C | -2.04 | i |
| Cc1cccc(C)c1N=C1SC(CC(=O)Nc2c(C)cccc2C)C(=O)N1CCc1ccccn1 (stereo not given) | 0.24 | i |
| COc1ccc(-c2ccc(C(=O)O)o2)c([N+](=O)[O-])c1 | 0.89 | i |
| Cc1ccccc1N(C(=O)c1cccs1)c1nc2ccccc2s1 | 1.47 | i |
| COc1ccc(-c2nn(-c3ccccc3)cc2C(=O)NCC(c2cccs2)N2CCOCC2)cc1 (stereo not given) | -1.47 | i |
| N#Cc1ccccc1NC(=O)CN(Cc1ccccc1)Cc1ccccc1 | 0.13 | i |
| CC(=O)c1ccc(NC(=O)CN2CCC(C(=O)c3ccc(F)cc3)CC2)cc1 | -0.2 | i |
| CCOc1ccc(-c2csc(C3COc4ccccc4O3)n2)cc1 (stereo not given) | -0.02 | i |
| CCC/C(=N/NC(=O)c1csc(C)c1C)c1ccc(Cl)s1 | -1.29 | i |
| C=CCc1ccc(OCCOc2cccc3ccc(C)nc23)c(OC)c1 | -0.36 | i |
| Cc1nnc(NC(=O)CN2C(=O)NC3(CCCC3)C2=O)s1 | 0.66 | i |
| O=C1NC(=O)C(CC(=O)N(Cc2ccco2)C2(C(=O)NC3CCCC3)CCCCC2)N1 (stereo not given) | 3.87 | i |
| CCOC(=O)CNc1ccc(C(=O)OCC)cc1[N+](=O)[O-] | 0.18 | i |
| CC/C(=N/NS(=O)(=O)c1ccc(Cl)cc1)c1ccc(O)cc1 | -0.9 | i |
| CCC(C)[C@H](NC(=O)NCc1cccnc1)C(=O)OC (stereo not given in full) | 0.58 | i |
| O=C1CC(c2cc([N+](=O)[O-])ccc2Cl)c2c(ccc3ccccc23)N1 (stereo not given) | 1.12 | i |
| O=C(Nc1ccc(F)cc1F)Nc1sccc1-c1nc2ccccc2s1 | 0.43 | i |
| COC(=O)C1SCC2C(=O)N(Cc3cccc(C)c3)CC(=O)N21 (stereo not given) | -2.07 | i |
| COc1cccc(-n2cc(C(=O)NC(C)C)c3ccccc3c2=O)c1 | -0.99 | i |
| CC(=O)Nc1ccc(S(=O)(=O)NCCC(=O)NCC2COc3ccccc3O2)cc1 (stereo not given) | -0.01 | i |
| COc1cccc(C=Nc2ccc3c(c2)OCCO3)c1O | -0.12 | i |
| COc1cc2c(cc1OC)C(c1cccc([N+](=O)[O-])c1)N(C(=O)CCC(=O)O)CC2 (stereo not given) | -0.73 | i |
| CCCCN(CC)CCCNC(=O)CN1C(=O)CSc2ccc(S(=O)(=O)N3CCOCC3)cc21 | 3.83 | i |
| CCCCCCC1CC(CC(=O)Nc2ccc([N+](=O)[O-])cc2)C(=O)O1 (stereo not given) | 0.77 | i |
| COc1cc2c(C(=O)NCCCOC(C)C)cn(CC(C)C)c(=O)c2cc1OC | -0.49 | i |
| COCCOC(=O)CC1=NC(=O)CS1 | -1.65 | i |
| CCc1nonc1NC(=O)c1oc2ccc(C)cc2c1C | 1.13 | i |
| CCN(C(=O)c1cc2c(=O)n3cccc(C)c3nc2s1)C1CCCCC1 | -0.51 | i |
| COC(=O)CSc1nnc(Cc2ccccc2)n1-c1ccc(C)cc1 | 0.01 | i |
| CN(C)c1ccc(C(CNC(=O)c2cccs2)N(C)C)cc1 (stereo not given) | 0.87 | i |
| CCC(C)(C)n1nnnc1C(c1cccs1)N1CCN(c2nc3ccccc3s2)CC1 (stereo not given) | 0.49 | i |
| C/C(=N\NC(=O)COc1ccccc1-c1ccccc1)c1ccc(O)cc1O | -0.01 | i |
| COc1cccc(CC(=O)Nc2nc(-c3cccnc3)cs2)c1 | 1.29 | i |
| COc1ccc(-c2ccc(C#N)c(SCC(=O)OCc3ccccc3)n2)cc1OC | -0.83 | i |
| CC(C)CC(c1nnnn1Cc1ccco1)N1CCN(C2CCCC2)CC1 (stereo not given) | 1.31 | i |
| O=C(COc1ccccc1C(=O)N/N=C\c1ccc(O)c(O)c1)N/N=C/c1ccc(O)c(O)c1 | 0.03 | i |
| CCC1=Nc2cc(C(=O)NCCN3CCCC3)ccc2Sc2ccccc21 | -0.58 | i |
| Cc1ccc(C(=O)NCC(=O)Nc2cccc(S(=O)(=O)NC3=NCCCCC3)c2)cc1C | 0.09 | i |
| Cc1ccc(C)c(N2CCN(C(=O)c3ccccc3Br)CC2)c1 | -0.91 | i |
| O=C(c1ccco1)N1CCN(C(=O)N2c3ccccc3Sc3ccccc32)CC1 | -0.42 | i |
